Screens (PubChem)
RGS16-Gao – RGS16-Galphao interaction regulator (human); O15492+P09471; bead-based flow cytometry RGS16-Galphao binding, fluorescence; actives lie on both sides; binding response (% of control), % at 10 µM; 0.38% of 220,000 active;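 active = below 25% or above 175%, edge rows of some plates excepted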;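 note: Galphao activated by GDP with aluminum fluoride before binding; 100% = wells without compound and 0% = beads without RGS; some results beyond the cut were filed as inactive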
INS promoter inh – TRM-6 insulin promoter activity inhibition. TRM-6 cells (human fetal islet line), insulin promoter-eGFP reporter, imaging; reporter expression induced with tamoxifen. inhibition, % at 2 µM. 0.9% of 130,000 active. AID 1273;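 active = inhibition above the mean plus 3 SD, with well images judged a real hit on visual review, cut at about 60% in these data, passing the limit was not always enough; inconclusive = inhibition over the cutoff but images rejected on review; inactive = inhibition not above the cutoff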
GALR2 agonist – activates the human galanin receptor 2; O43603; GALR2-expressing cells, agonist activation read-out; activation, %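 (tested at 5 µM)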; 0.48% of 140,000 active; AID 803;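 active = above mean plus 3 SD of all compounds, about 5% in these data, not always enough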;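 note: 0% = vehicle buffer wells and 100% = reference agonist at full effect; tested in CHO reporter cells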
PKD1 inh – PKD1 (human) kinase inhibition. 0.056% of 200,000 active. PKD1 kinase fluorescence polarization assay. Q15139. inhibition, %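 (about 10 µM by stock and volumes)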;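 active = inhibition of 50% or more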;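 note: controls were vehicle for no effect and a reference inhibitor for full effect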
Target sequence (Q15139 whole entry, looked up): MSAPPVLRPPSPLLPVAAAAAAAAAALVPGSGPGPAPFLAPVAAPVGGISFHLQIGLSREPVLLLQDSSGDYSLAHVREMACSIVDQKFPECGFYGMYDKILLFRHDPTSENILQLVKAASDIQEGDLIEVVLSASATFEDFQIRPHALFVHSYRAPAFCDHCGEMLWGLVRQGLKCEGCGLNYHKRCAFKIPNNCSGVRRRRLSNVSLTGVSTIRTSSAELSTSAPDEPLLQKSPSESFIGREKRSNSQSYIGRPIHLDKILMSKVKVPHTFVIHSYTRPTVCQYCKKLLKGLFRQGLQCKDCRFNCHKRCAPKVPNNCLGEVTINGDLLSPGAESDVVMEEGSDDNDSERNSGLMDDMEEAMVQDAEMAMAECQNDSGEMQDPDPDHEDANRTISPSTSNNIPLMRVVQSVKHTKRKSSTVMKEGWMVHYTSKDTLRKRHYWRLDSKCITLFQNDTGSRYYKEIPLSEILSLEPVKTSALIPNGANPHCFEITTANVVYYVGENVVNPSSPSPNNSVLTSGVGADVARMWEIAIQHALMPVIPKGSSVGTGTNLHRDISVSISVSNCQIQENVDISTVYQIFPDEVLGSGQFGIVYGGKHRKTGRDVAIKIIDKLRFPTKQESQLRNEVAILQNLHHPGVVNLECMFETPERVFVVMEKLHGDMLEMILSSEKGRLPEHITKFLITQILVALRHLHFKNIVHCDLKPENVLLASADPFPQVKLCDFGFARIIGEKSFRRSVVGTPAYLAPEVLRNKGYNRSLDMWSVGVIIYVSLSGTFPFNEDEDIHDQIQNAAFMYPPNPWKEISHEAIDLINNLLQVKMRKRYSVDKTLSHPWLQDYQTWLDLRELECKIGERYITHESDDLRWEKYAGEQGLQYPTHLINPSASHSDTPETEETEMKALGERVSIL
HSV replic up – HSV replication enhancement; 0.005% of 220,000 active; HSV replication augmentation in cells, fold increase; maximum fold increase;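 active = peak rise of 1.5-fold or more in the series; inconclusive = self-fluorescent or not available for retest; tested in PC3 cells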;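 note: first round at 10 µM; read as green reporter fluorescence; hits show the peak of a series up to 25 µM; 1 = signal of infected wells without compound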
INS promoter inh cell count – recorded beside INS promoter inh, whose call it bears; normalized cell count, %; measured here: cell count, toxicity; reference of the scale not given here;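 cells exposed to compound for 48 h; stained nuclei by imaging scaled within each plate; lower means fewer cells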
HSV replic up primary fold – also measured in HSV replic up; calls as there; fold increase; compound at 10 µM; measured here: primary screen fold increase 10 uM; tested in PC3 cells;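 GFP signal in the first replicate; 1 = infected wells without compound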
* marks the source's active call; other numbers are inactive results; i = inactive; ? = inconclusive; . = not tested or not shown; [ ] = remark or other dose.

SMILES | RGS16-Gao | INS promoter inh | INS promoter inh cell count | GALR2 agonist | PKD1 inh | HSV replic up | HSV replic up primary fold
COc1cccc(Nc2ccccc2C(=O)O)c1 | 99 | . | . | . | -3 | i | 1
N#Cc1c(-c2ccccc2)cc(-c2ccccc2)nc1Br | 101 | 35 | 119 | -0.7 | -3 | i | 1
CCOc1ncccc1C(=O)NCc1ccc(OC)c(OC)c1 | 108 | 27 | 111 | -0.6 | -1 | i | 0.86
CCOc1ccc(CC(=NCCO)C2=C(O)CC(C)(C)CC2=O)cc1OCC | 102 | -27 | 106 | 0.1 | -8 | i | 1.1
COc1ccc(S(=O)(=O)Nc2cc(C)nn2-c2ccccc2)cc1 | 106 | . | . | -0.4 | 5 | i | 0.87
S=C(NC1CCCCC1)NN(c1ccccc1)c1ccccc1 | 97 | -45 | 60 | 0.0 | 1 | i | 0.94
O=C(O)c1ccc(N=Nc2c(O)[nH]c3cc(Cl)ccc23)cc1 | 100 | . | . | . | . | ? | .
c1ccc(-n2c(SCc3nc(-c4cccs4)no3)nnc2-c2ccco2)cc1 | 99 | . | . | -0.6 | 5 | i | 0.75
COc1cc(/C=N/Nc2ccccn2)cc(OC)c1O | 156 | 27 | 61 | . | -10 | i | 0.89
O=C(CSc1nnc2c(Cl)cc(Cl)cn12)N1CCOCC1 | 102 | 17 | 141 | -1.8 | -2 | i | 1.1
Cc1ccc(NC(=O)/C(C#N)=C/c2cn(CC(=O)NCc3ccco3)c3ccccc23)cc1C | 122 | . | . | . | -9 | i | 0.72
O=P(OC1CCCCC1)(OC1CCCCC1)C(O)c1ccccc1 (configuration not stated) | 93 | -104 | 95 | -0.6 | -3 | i | 1.1
Nc1nc(SCC(=O)c2cc(F)ccc2F)n[nH]1 | 102 | -36 | 95 | . | 2 | i | 1.2
Clc1cc(Sc2ccc(Br)cc2)nnc1-c1ccccc1 | 103 | 62 | 39 | -1.3 | -6 | i | 0.84
O=C(CSc1ccccc1C(=O)NCc1ccccc1)NC12CC3CC(CC(C3)C1)C2 | 98 | . | . | -0.6 | 4 | i | 0.95
CC(=O)C1=C(O)C(=O)N(Cc2cccnc2)C1c1ccc(C)cc1 (configuration not stated) | 103 | 15 | 136 | -1.3 | 5 | i | 0.99
CCCC(=O)OC(C(=O)Nc1cc(C(F)(F)F)ccc1Cl)c1ccccc1 (configuration not stated) | 241*[activator] | 38 | 86 | -0.9 | 5 | i | 1.1
CCOC(=O)c1sc2nc(C3CC3)cc(-c3ccc(OC)cc3)c2c1N | 98 | 18 | 111 | -1.0 | 9 | i | 0.87
CCOC(=O)c1ccc(NC(=O)CC2C(=O)N(c3ccc(F)cc3)C(=O)N2CCC(C)C)cc1 (configuration not stated) | 138 | -18 | 83 | 1.1 | 3 | i | 1
C=CCn1c(SCc2ccc3c(c2)OCO3)nc2scc(-c3ccco3)c2c1=O | 92 | -26 | 94 | -0.8 | -7 | i | 0.79
COC(=O)c1cccc(N2C(=O)C(Cl)=C(N3CCOCC3)C2=O)c1 | 91 | -64 | 61 | 0.3 | -6 | i | 1.1
CCn1c(SCC(N)=O)nnc1-c1ccco1 | 99 | 16 | 71 | -1.5 | -2 | i | 0.96
Cc1cc(C(=O)Nn2cnnc2)cs1 | 99 | -138 | 127 | -1.9 | 2 | i | 0.9
CN1CCN(C(=S)NC(=O)c2ccc(Cl)cc2)CC1 | 98 | . | . | . | -5 | i | 0.94
COCC(=O)OCC(=O)N1N=C(c2ccc(Cl)cc2)CC1c1ccco1 (configuration not stated) | 111 | -14 | 104 | . | -6 | i | 0.93
CCOC(=O)Cc1nn2c(=O)cc(C)nc2s1 | 100 | -70 | 97 | -0.4 | -6 | i | 0.97
CCN1CCc2c(OCC(=O)N3CCc4ccccc43)cccc2C1=O | 100 | . | . | . | 0 | i | 1
O=[N+]([O-])/C=C/c1cn(Cc2ccc(F)cc2)c2ccccc12 | 47 | -13 | 55 | -0.7 | -10 | i | 0.84
O=C(O)C1=C(C(=O)Nc2cc(C(F)(F)F)ccc2Cl)CCCC1 | 99 | . | . | . | -1 | i | 1
Clc1ccc(CSc2nnc(/C=C/c3ccccc3)o2)c(Cl)c1 | 99 | 23 | 118 | -2.5 | -9 | i | 1
C=CCN(c1ccc(OC)cc1)S(=O)(=O)c1ccc(Cl)c(C(=O)OCC(=O)NC2CC2)c1 | 100 | 3 | 72 | . | 7 | i | 0.79
COc1cccc(/C=N/n2cnnc2)c1OCc1ccccc1 | 101 | -20 | 110 | -1.0 | -2 | i | 1
COc1cc(OC)c(OC)cc1/C=N/NC(=O)CCc1c(C)n[nH]c1C | 97 | . | . | . | . | i | 0.88
Cc1ccc(S(=O)(=O)N2c3ccccc3OCC2C(C)(C)C)cc1 (configuration not stated) | 106 | 8 | 99 | -0.8 | -3 | i | 0.86
CC(C)(C)c1ccc(NC(=O)COC(=O)c2ccc(NS(=O)(=O)c3ccc(F)c(F)c3)cc2)cc1 | 106 | -35 | 125 | -1.3 | 5 | i | 0.95
Cc1ccccc1NC(=O)C1CC(=O)OC12CCOC(C)(C)C2 (configuration not stated) | 102 | . | . | . | -10 | i | 0.96
Cc1cccc(C)c1NC(=O)N1CCC(n2c(=O)[nH]c3ccccc32)CC1 | 100 | . | . | -1.8 | 5 | i | 0.72
Cc1oc(C(C)(C)C)cc1C(=O)NC(Cc1ccccc1)C(=O)O (configuration not stated) | 69 | . | . | . | -7 | i | 0.97
Cn1cc([N+](=O)[O-])c(C(=O)NCC(=O)O)n1 | 105 | . | . | . | 0 | i | 0.97
Cc1ccccc1NC(NC(=O)OCCn1c([N+](=O)[O-])cnc1C)C(Cl)(Cl)Cl (configuration not stated) | 100 | . | . | -1.7 | -3 | i | 0.98

Only INS promoter inh cell count, RGS16-Gao and HSV replic up primary fold, for 5 of the compounds above:
Molecule	INS promoter inh cell count	RGS16-Gao	HSV replic up primary fold
CCn1c(SCC(N)=O)nnc1-c1ccco1	71	99	0.96
Cn1cc([N+](=O)[O-])c(C(=O)NCC(=O)O)n1	.	105	0.97
O=C(O)c1ccc(N=Nc2c(O)[nH]c3cc(Cl)ccc23)cc1	.	100	.
O=C(CSc1nnc2c(Cl)cc(Cl)cn12)N1CCOCC1	141	102	1.1
CN1CCN(C(=S)NC(=O)c2ccc(Cl)cc2)CC1	.	98	0.94

Structures listed above marked active in RGS16-Gao.
compound,RGS16-Gao,GALR2 agonist,PKD1 inh,HSV replic up,HSV replic up primary fold
CCCC(=O)OC(C(=O)Nc1cc(C(F)(F)F)ccc1Cl)c1ccccc1 (configuration not stated),241*[activator],-0.9,5,i,1.1

Returning to the listing, starting two compounds before the break.
SMILES | RGS16-Gao | INS promoter inh | INS promoter inh cell count | GALR2 agonist | PKD1 inh | HSV replic up | HSV replic up primary fold
Cn1cc([N+](=O)[O-])c(C(=O)NCC(=O)O)n1 | 105 | . | . | . | 0 | i | 0.97
Cc1ccccc1NC(NC(=O)OCCn1c([N+](=O)[O-])cnc1C)C(Cl)(Cl)Cl (configuration not stated) | 100 | . | . | -1.7 | -3 | i | 0.98
Nc1nc(-c2c[nH]c3ccccc23)cs1 | 100 | . | . | -1.7 | 0 | i | 0.97
COc1cc(/C=C2\N=C3CCCCCN3C2=O)ccc1O | 100 | 27 | 32 | -2.1 | 6 | i | 1.3
COc1ccc(/C=C(\C#N)C(=O)OCC(=O)NCc2ccc(Cl)cc2)cc1 | 102 | -38 | 72 | -1.5 | -6 | i | 0.94
CN(C)/C=C(/C(=O)c1ccccc1)n1cncn1 | 99 | 28 | 102 | . | 0 | i | 1.1
O=C(Nc1ccccc1)N(C1=NCCCCS1)c1cccc2ccccc12 | 95 | 46 | 95 | -2.2 | -3 | i | 0.94
CNc1nnc(-c2cccc(N(C)C)c2)s1 | 103 | -19 | 198 | -1.6 | -10 | i | 0.96
CCc1ccc(Nc2ncccc2C#N)cc1 | 108 | . | . | -2.9 | 10 | . | .
CC(C)CCNC(=O)C12CN(Cc3ccccc3)CC1C(c1ccc([N+](=O)[O-])cc1)=NO2 (configuration not stated) | 75 | 23 | 63 | -0.1 | 3 | i | 0.91
O=C(/C=C/c1ccco1)NC(=S)Nc1cccc(-c2nc3ccccc3o2)c1 | 99 | . | . | -1.6 | -2 | i | 0.92
COc1cccc(NC(=O)CN(C)CC(=O)Nc2ccccc2-c2ccccc2)c1 | 109 | 29 | 86 | . | -10 | . | .
O=C(CCN1CCOCC1)Nc1ccc2c(c1)N(C(=O)CN1CCOCC1)c1ccccc1CC2 | 84 | 39 | 126 | -0.7 | -5 | i | 0.98
CC1(C)CC(=O)C(C=NCC2CCN(C(=S)Nc3cccc(Cl)c3)CC2)=C(O)C1 | 96 | . | . | . | 1 | i | 0.88
CCOC(=O)C(O)(CC(=O)Nc1ccc(Cl)cc1Cl)C(F)(F)F (configuration not stated) | . | 39 | 47 | 1.1 | 2 | i | 1.1
CCCCOC(=O)c1ccc(NC(=O)c2nn(C)cc2Br)cc1 | 54 | -30 | 118 | -0.1 | 6 | i | 1.1
CC(C)C(=O)Nc1ccc(C(=O)NNC(=O)c2ccco2)cc1 | 109 | 20 | 41 | 0.1 | -1 | i | 1
O=C(Cn1ncc2c1-c1ccccc1OC2)N1CCN(Cc2ccccc2)CC1 | 122 | . | . | . | . | i | 1.1
Cc1nn(-c2ccccc2)cc1/C=N/NS(=O)(=O)c1ccccc1 | 104 | 57 | 118 | -0.8 | -1 | i | 0.91
COc1cc(NC(=O)c2ccco2)c(OC)cc1NC(=O)CSc1ncc(-c2ccc(F)cc2)[nH]1 | -135 | 3 | 106 | -3.4 | 0 | i | 0.95
CCOC(=O)c1sc(SC)c(C(C)=O)c1C | 106 | -17 | 84 | -3.1 | -3 | i | 1
Cc1nc(NC(C)c2ccccc2)sc1C(=O)Nc1ccccc1 (configuration not stated) | 107 | . | . | . | -4 | i | 0.86
Cc1noc(C)c1COc1ccc(CC(=O)NCCc2ccccc2)cc1 | 96 | . | . | . | 9 | i | 1
O=C(NNC1=NCCC1)c1cccc(S(=O)(=O)N2CCCCC2)c1 | 121 | . | . | -0.9 | 6 | i | 1.1
O=C(O)C1CCCCC1C(=O)NCc1ccc(F)cc1 (configuration not stated) | 107 | 5 | 31 | -1.1 | -2 | i | 0.78
O=C(C1=C[C@H](C2CCCCC2)C[C@H](OCc2ccc(CO)cc2)O1)N1CCOCC1 | 106 | . | . | . | 21 | i | 0.93
FC(F)(F)c1ccc(Cl)c(NC(=S)N/N=C/c2ccccc2Cl)c1 | 101 | . | . | . | . | i | 0.9
C=CCOc1ccc(C2CC(C)=NN2c2ccccc2)cc1 (configuration not stated) | 107 | 0 | 87 | -0.4 | -10 | i | 0.93
CCCSc1nc2c(c(=O)n(C)c(=O)n2C)n1C | 92 | . | . | . | . | i | 1.2
CC(=O)NCCn1c(SCC(=O)NC2CCCCC2)nc2ccccc2c1=O | 102 | -7 | 91 | . | -10 | i | 0.8
C=CCOC(=O)C1=C[C@H](c2ccc(C(F)(F)F)cc2)[C@@H](CCCO)[C@H](OCC)O1 | 94 | . | . | . | 1 | i | 0.95
O=C1CC(c2ccc(F)cc2)Cc2nc(NCc3ccco3)ncc21 (configuration not stated) | 95 | 12 | 94 | -0.1 | -10 | i | 0.85
O=c1cc([O-])[n+]2c3n1CCCN3CCC2 | 32 | 17 | 104 | -0.2 | -2 | i | 1
O=C1N=c2ccccc2=C1c1sc(NS(=O)(=O)c2ccccc2)nc1O | 102 | -53 | 118 | . | -1 | i | 0.88
COC(=O)c1ccc(/C=N/Nc2nc(-c3ccc(C)cc3)cs2)cc1 | 100 | . | . | 0.0 | 5 | i | 0.98
COc1ccccc1C1/C(=C(/O)c2ccc(C)cc2)C(=O)C(=O)N1CCN1CCOCC1 (configuration not stated) | 101 | . | . | 0.7 | -10 | i | 0.97
CC1Cc2ccccc2N1C(=S)NC(=O)c1ccco1 (configuration not stated) | 99 | . | . | . | -6 | i | 0.96
O=C(Cn1nnc2ccccc2c1=O)NCc1ccco1 | 105 | . | . | -2.9 | -2 | i | 1
Cc1cn2c(N)c(C=C3C=C(Cl)C(=O)C(Cl)=C3)c(=O)nc2s1 | 444*[activator] | 41 | 97 | . | -9 | ? | .
CC(=O)c1cccc(NC(=O)C(CC(C)C)NC(=O)C2CCCCC2)c1 (configuration not stated) | 99 | 7 | 112 | . | -12 | i | 0.89
COc1ccc(C(=O)Nc2sc(C(=O)N(C)C)c(C)c2C#N)cc1[N+](=O)[O-] | 102 | 0 | 106 | 0.2 | -4 | i | 1
